Lassa entry inh – Lassa virus entry inhibition | Lassa virus pseudotype entry inhibition, cell reporter; control for the full effect not named in the record | AID 540256 | 1.2% of 300,000 active | Potency, µM (highest dose often 37.9 µM), without a hit: top-dose activity change, negative = inhibition, hits mostly inhibitors; active means well fitted inhibition curve with a large enough effect; inconclusive means small, poorly fitted or top-dose-only effect, or effect the other way; inactive means flat fitted curve, though single readings scatter; tested in HEK293 cells; further: on the % scale 0 is the no-effect control and ±100 the full control effect; nearly all actives have a fitted effect of over 50% in size; luciferase read-out
SARS PLpro yeast – inhibitors of SARS-CoV papain-like protease in yeast; Potency, µM (highest dose often 32.9 µM), inactives show top-dose activity, positive = growth rescue; AID 485353; 0.19% of 330,000 active; S. cerevisiae expressing SARS-CoV PLpro, growth rescue; control for the full effect not named in the record; further: 0% is about no effect; nearly all actives have a fitted effect of over 55% in size; growth read by luminescence after 48 h
MARV entry inh – blocks Marburg virus binding to or entry into cells. Marburg virus pseudotyped entry inhibition, cell reporter; control for the full effect not named in the record; about a third of the inactives were read at about 46 µM. Potency, µM (doses to about 37.8 µM), for the others: top-dose activity change, negative = inhibition, hits mostly inhibitors. 1.8% of 300,000 active; active = well fitted inhibition curve with a large enough effect; inconclusive = small, poorly fitted or top-dose-only effect, or effect the other way; inactive = flat fitted curve, though single readings scatter; tested in HEK293 cells; about a fifth of its hits are not listed in these tables; further: on the % scale 0 is the no-effect control and ±100 the full control effect; luciferase read-out
Cruzain Triton – cruzain (T. cruzi) inhibition with detergent | P25779 | purified cruzain, Z-FR-AMC fluorescence, 0.01% Triton | Potency, µM, for the others: max response, negative = inhibition, usual class: inhibitors | 0.43% of 200,000 active | AID 1478; active means well fitted curve in the direction sought with a large enough effect; inconclusive means small, poorly fitted or top-dose-only effect, or another doubt; inactive means no such curve, though single readings can be large; an effect the other way counts as inactive or inconclusive;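 further: plate controls were neutral wells for no effect and buffer without enzyme for full effect; nearly all actives have a fitted effect of over 40% in size; top concentration of the series not given in the record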
Target sequence (P25779 123-467 limits assumed): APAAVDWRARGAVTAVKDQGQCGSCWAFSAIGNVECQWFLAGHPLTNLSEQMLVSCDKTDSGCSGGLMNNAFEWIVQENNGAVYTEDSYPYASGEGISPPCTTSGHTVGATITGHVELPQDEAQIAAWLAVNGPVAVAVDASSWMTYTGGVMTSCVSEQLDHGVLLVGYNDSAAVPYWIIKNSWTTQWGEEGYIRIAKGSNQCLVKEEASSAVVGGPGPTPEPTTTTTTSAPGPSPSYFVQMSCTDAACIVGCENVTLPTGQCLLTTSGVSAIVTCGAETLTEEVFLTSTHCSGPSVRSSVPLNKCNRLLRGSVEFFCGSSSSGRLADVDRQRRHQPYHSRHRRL
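Read-out: AMC fluorescence (360 nm excitation, 450 nm emission), four reads over 2 min, first-to-third difference used. Conditions: cruzain 1.5 nM, Z-FR-AMC 2 uM, pH 5.5 acetate, 5 mM DTT, 0.01% Triton X-100.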
RE007 growth inh – less growth of the S. pombe RE007 Vpr strain; S. pombe RE007 Vpr strain, BacTiter-Glo ATP luminescence, 24 h; control for the full effect not named in the record; AID 651644; Potency, µM (titrated, usually from 92.2 µM), for inactives: at the top dose activity change, negative = less growth; 0.21% of 360,000 active; active = well fitted falling curve with a large enough effect; inconclusive = small, poorly fitted or top-dose-only effect; inactive = no such curve, though single readings can be large or run the other way;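 further: on the % scale 0 is the no-effect control and ±100 the full control effect; nearly all actives have a fitted effect of over 50% in size; the assay follows cell death caused by Vpr and the record does not say whether a fall means rescue or toxicity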
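Fission yeast RE007 carrying one integrated HIV-1 vpr copy, seeded at OD 0.01 in PMG+AL medium with 23 nL pinned compound. Grown 24 h at 30 degrees; viability read by BacTiter-Glo luminescence after 5 min.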
NS1 inh – influenza NS1 inhibition | S. cerevisiae slowed by influenza A NS1, growth recovery by OD600 | 0.4% of 270,000 active | Potency, µM (titrated, usually from 46.1 µM), for inactives: at the top dose activity, positive = more growth; further: actives are rising curves; nearly all actives have a fitted effect of over 50% in size
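Compounds were scored for reversing the slow growth caused by influenza A NS1 in S. cerevisiae, measured by optical density at 600 nm. Assay medium contained 2% galactose at pH 6.0; NS1-free yeast of the same strain were the positive control.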
Cruzain inh noDet – inhibitors of Trypanosoma cruzi cruzain without detergent | P25779 | purified cruzain, Z-FR-AMC fluorescence, no detergent | Potency, µM, for the others: max response, negative = inhibition, most hits filed as inhibitors | 2.3% of 200,000 active | AID 1476; active means well fitted curve in the direction sought with a large enough effect; inconclusive means small, poorly fitted or top-dose-only effect, or another doubt; inactive means no such curve, though single readings can be large; an effect the other way counts as inactive or inconclusive;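 further: plate controls were enzyme without inhibitor for no effect and buffer without enzyme for full effect; nearly all actives have a fitted effect of over 40% in size; top concentration of the series not given in the record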
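Detergent-free condition (0.00005% Triton X-100) in acetate buffer pH 5.5 with DTT. 1.5 nM enzyme and compound were pre-mixed 15 min, then 2 uM Z-FR-AMC substrate added; reaction progress from fluorescence change between first and third reads (60 s).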
2A StopGo – FMDV 2A StopGo reporter, luciferase signal | human cells with a luciferase reporter of 2A StopGo recoding; control for the full effect not named in the record | Potency, µM (highest dose often 57.9 µM), without a hit: top-dose signal change, negative = less light | 1.2% of 410,000 active | AID 1159524; active = well fitted falling curve with a large enough effect; inconclusive = small, poorly fitted or top-dose-only effect; inactive = no such curve, though single readings can be large or run the other way; tested in HEK293T cells; further: on the % scale 0 is the no-effect control and ±100 the full control effect; nearly all actives have a fitted effect of over 45% in size; luciferase light after 4 h
* marks the source's active call; other numbers are inactive results; ? = inconclusive; . = not tested or not shown; & = joins results of further samples; [ ] = remark or other dose. Unless noted, the call rests on the fitted dose curve; in most records, active means well fitted rising curve with a large enough effect; inconclusive means small, poorly fitted or top-dose-only effect; inactive means no such curve, though single readings can be large or run the other way. Potency means the concentration at half of the fitted maximal effect.

Molecule	Cruzain Triton	2A StopGo	MARV entry inh	Lassa entry inh	NS1 inh	Cruzain inh noDet	RE007 growth inh	SARS PLpro yeast
O=C(NCCCN1CCCC1)c1ccc2c(c1)N(Cc1ccc(F)cc1)C(=O)c1ccccc1S2=O (stereo not given)	.	-12%	.	.	?	.	-4%	21%
COc1ccc(CC(=O)Nc2c3c(nn2-c2cccc(C)c2C)CS(=O)C3)cc1 (stereo not given)	5.0%	0%	?	3%	-5%	-4%	11%	6%
COC(=O)CCCNC(=O)c1ccc(OC2CCN(CCc3ccccc3)CC2)cc1	.	19%	.	.	-2%	.	1%	-1%
O=C(N/N=C/c1ccc(OC(=O)c2cccs2)cc1)c1ccccn1	.	8%	-14%	?	-5%	.	7%	-5%
Cc1cc(C)cc(-n2c(C)cc(C=C(C#N)C#N)c2C)c1	1.2%	19%	-6%	5%	4%	-23%	0%	-4%
Cc1onc(-c2ccccc2Cl)c1C(=O)N1CCN(c2nc3ccccc3s2)CC1	-2.7%	?	-24%&-24%	-30%	-7%	?	-15%	-9%
CC(=O)N1N=C2C3CCN(CC3)C2C1c1ccc(F)cc1 (stereo not given)	.	-11%	-3%	2%	8%	.	12%	-1%
C=C1C(=O)OC2C1CCC(C)C1C=CC(=O)C12C (stereo not given)	.	?	11µM*	?	.	.	28%	.
CCOC(=O)N1CCN(Cc2cc(=O)oc3ccc(Cl)cc23)CC1	-5.4%	3%	-22%	-9%	-31%	4%	17%	5%
Cc1ccccc1CCNCc1cc2cccc(C)c2[nH]c1=O	.	-21%	.	.	11%	.	-17%	-5%
Cc1ccc(NC(=O)N2CCCCCC2)c(C)c1	.	37%[activator]	.	.	15%	.	1%	1%
O=C(O)CNC(=O)C1(N2C(=O)c3ccccc3C2=O)CCCC1	.	3%	8%	17%	.	.	5%	.
CCOC(=O)Cc1ccc(NC(=O)NCc2ccc3c(c2)CCN3C(=O)CC)cc1	-2.1%	-18%	.	-5%[46.1 µM]	.	18%	.	.
CN(/C(=N/S(=O)(=O)c1cccs1)c1ccccc1)c1ccccc1	1.5%	13%	?	-25%	4%	-5%	-4%	-13%
O=C1OCC(Cn2c3ccccc3c3ccccc32)O1 (stereo not given)	-6.2%	5%	-5%	1%	-2%	-3%	9%	11%
CCC(Oc1ccccc1F)C(=O)Nc1ccc2c(c1)n(C)c(=O)n2C (stereo not given)	.	-14%	.	.	20%	.	-12%	0%
COc1cc2c(=O)n(CCCN3CCOCC3)c(=S)[nH]c2c(OC)c1OC	-3.3%	-16%	-12%	4%	-5%	1%	-11%	1%
CN(C1CCCCC1)S(=O)(=O)c1cccc(C(=O)OCC(=O)NC2CCCc3ccccc32)c1 (stereo not given)	-3.7%	0%	17%	2%	6%	-23%	17%	-20%
O=C(Nc1ccc(Cl)cn1)C1C(c2ccccc2)C1(Cl)Cl (stereo not given)	.	-25%	?	?	-5%	.	10%	-1%
COc1cc2c(cc1OC)C(C(=O)Nc1ccc3c(c1)OCCO3)C(c1cccnc1)N(C)C2=O (stereo not given)	4.2%	-11%	-14%	?	-3%	-13%	-6%	-4%
CCCCN(CCCNC(=O)CN1N=C(c2ccccc2)CCC1=O)c1ccccc1	-0.5%	-10%	.	-22%[46.1 µM]	.	?	.	.
COc1ccc(NC(=O)CN(C)C(=O)/C=C/c2ccc(S(=O)(=O)N3CCCCCC3)cc2)cc1	.	-25%	?	-3%	.	.	13%	.
COc1cc(/C=N/NC(=O)CSc2ccccn2)ccc1OC(C)C	.	27%	?	-18%	-1%	.	4%	1%
COc1cc(NC(C)=O)c2ncccc2c1[N+](=O)[O-]	-8.4%	-6%	2%	10%	18%	-9%	3%	1%
CC(CCOS(N)(=O)=O)c1ccccc1 (stereo not given)	.	-5%	.	.	-1%	.	46%	3%
CCOC(=O)c1cc(-c2ccccc2)n(CC(=O)NCc2ccccc2)c1C	1.1%	-4%	.	.	.	12%	.	.
CCP(=O)(CC)C(C)(C)CP(=O)(c1ccccc1)c1ccccc1	-6.9%	6%	10%	11%	-4%	?	2%	4%
Cc1ccccc1C(=O)c1c[nH]c(C(N)=O)c1	-4.0%	-19%	13%	0%	2%	-9%	17%	-1%
Cn1c(=O)n(C/C=C/c2ccccc2)c(=O)c2c1nc1n2CCN1c1ccc(F)cc1	-4.6%	-2%	.	9%[46.1 µM]	.	-6%	.	.
COc1cccc(C(=O)NCC(c2ccc(N(C)C)cc2)N2CCc3ccccc32)c1OC (stereo not given)	-5.2%	-1%	.	-12%[46.1 µM]	.	5%	.	.
CCc1cccc(C)c1NC(=O)Cn1ccn(-c2cccc(OC)c2)c(=O)c1=O	-9.0%	-13%	.	0%[46.1 µM]	.	8%	.	.
CCCN1CCN(CCNC(=O)Nc2ccc(OC)cc2OC)CC1	-0.1%	-17%	0%[46.1 µM]	23%[46.1 µM]	.	9%	.	.
CC(=O)Nc1ccc(N=Cc2c(O)n(Cc3ccco3)c(=O)[nH]c2=O)cc1	.	-19%	-6%[46.1 µM]	20%	-6%	.	-9%	0%
Cn1c(=O)[nH]c(=O)c2c1nc(N1CCCCCC1)n2CC(=O)c1ccccc1	4.0%	.	0%	.	0%	-1%	.	2%
CC1CCCCC1NC(=O)CN1C(=O)CSc2cc(S(=O)(=O)N3CCCCCC3)ccc21 (stereo not given)	-3.9%	-16%	?	-6%	-1%	-14%	16%	8%
O=C1C(=O)N(C2CCN(C(=O)c3ccc(Cl)cc3)CC2)CCN1Cc1ccc(F)cc1	0.4%	-14%	.	6%[46.1 µM]	.	-4%	.	.
O=C(COC(=O)C1COc2ccccc2O1)NC(=O)NC1CCCCC1 (stereo not given)	0.8%	3%	17%	-7%	11%	0%	22%	-5%
COC(=O)CSc1ccc(S(=O)(=O)N2CCOCC2)cc1[N+](=O)[O-]	-2.3%	-11%	?	7%	-6%	-1%	5%	-9%

13 successive compounds out of the list so far, for reference:
Molecule	Cruzain Triton	2A StopGo	MARV entry inh	Lassa entry inh	NS1 inh	Cruzain inh noDet	RE007 growth inh	SARS PLpro yeast
O=C(NCCCN1CCCC1)c1ccc2c(c1)N(Cc1ccc(F)cc1)C(=O)c1ccccc1S2=O (stereo not given)	.	-12%	.	.	?	.	-4%	21%
COc1ccc(CC(=O)Nc2c3c(nn2-c2cccc(C)c2C)CS(=O)C3)cc1 (stereo not given)	5.0%	0%	?	3%	-5%	-4%	11%	6%
COC(=O)CCCNC(=O)c1ccc(OC2CCN(CCc3ccccc3)CC2)cc1	.	19%	.	.	-2%	.	1%	-1%
O=C(N/N=C/c1ccc(OC(=O)c2cccs2)cc1)c1ccccn1	.	8%	-14%	?	-5%	.	7%	-5%
Cc1cc(C)cc(-n2c(C)cc(C=C(C#N)C#N)c2C)c1	1.2%	19%	-6%	5%	4%	-23%	0%	-4%
Cc1onc(-c2ccccc2Cl)c1C(=O)N1CCN(c2nc3ccccc3s2)CC1	-2.7%	?	-24%&-24%	-30%	-7%	?	-15%	-9%
CC(=O)N1N=C2C3CCN(CC3)C2C1c1ccc(F)cc1 (stereo not given)	.	-11%	-3%	2%	8%	.	12%	-1%
C=C1C(=O)OC2C1CCC(C)C1C=CC(=O)C12C (stereo not given)	.	?	11µM*	?	.	.	28%	.
CCOC(=O)N1CCN(Cc2cc(=O)oc3ccc(Cl)cc23)CC1	-5.4%	3%	-22%	-9%	-31%	4%	17%	5%
Cc1ccccc1CCNCc1cc2cccc(C)c2[nH]c1=O	.	-21%	.	.	11%	.	-17%	-5%
Cc1ccc(NC(=O)N2CCCCCC2)c(C)c1	.	37%[activator]	.	.	15%	.	1%	1%
O=C(O)CNC(=O)C1(N2C(=O)c3ccccc3C2=O)CCCC1	.	3%	8%	17%	.	.	5%	.
CCOC(=O)Cc1ccc(NC(=O)NCc2ccc3c(c2)CCN3C(=O)CC)cc1	-2.1%	-18%	.	-5%[46.1 µM]	.	18%	.	.

Bioassay records (PubChem)
